Source: PubChem BioAssay
KCNQ2 block = KCNQ2 channel blockers in CHO-K1 cells – cell-based, FluxOR thallium flux, B-score, primary screen (AID 2156); O88943; 20 min; hits give low values; only compounds with negative scores are shown here; some inactives read as strong as hits; B-score at 10 µM; hit rate 1.1% among 310,000;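 active = fluorescence ratio B-score at most minus 3 library SDs, with starting brightness B-score within 2 library SDs, cut at about -5.5 in these data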
Target sequence (O88943 whole entry, looked up): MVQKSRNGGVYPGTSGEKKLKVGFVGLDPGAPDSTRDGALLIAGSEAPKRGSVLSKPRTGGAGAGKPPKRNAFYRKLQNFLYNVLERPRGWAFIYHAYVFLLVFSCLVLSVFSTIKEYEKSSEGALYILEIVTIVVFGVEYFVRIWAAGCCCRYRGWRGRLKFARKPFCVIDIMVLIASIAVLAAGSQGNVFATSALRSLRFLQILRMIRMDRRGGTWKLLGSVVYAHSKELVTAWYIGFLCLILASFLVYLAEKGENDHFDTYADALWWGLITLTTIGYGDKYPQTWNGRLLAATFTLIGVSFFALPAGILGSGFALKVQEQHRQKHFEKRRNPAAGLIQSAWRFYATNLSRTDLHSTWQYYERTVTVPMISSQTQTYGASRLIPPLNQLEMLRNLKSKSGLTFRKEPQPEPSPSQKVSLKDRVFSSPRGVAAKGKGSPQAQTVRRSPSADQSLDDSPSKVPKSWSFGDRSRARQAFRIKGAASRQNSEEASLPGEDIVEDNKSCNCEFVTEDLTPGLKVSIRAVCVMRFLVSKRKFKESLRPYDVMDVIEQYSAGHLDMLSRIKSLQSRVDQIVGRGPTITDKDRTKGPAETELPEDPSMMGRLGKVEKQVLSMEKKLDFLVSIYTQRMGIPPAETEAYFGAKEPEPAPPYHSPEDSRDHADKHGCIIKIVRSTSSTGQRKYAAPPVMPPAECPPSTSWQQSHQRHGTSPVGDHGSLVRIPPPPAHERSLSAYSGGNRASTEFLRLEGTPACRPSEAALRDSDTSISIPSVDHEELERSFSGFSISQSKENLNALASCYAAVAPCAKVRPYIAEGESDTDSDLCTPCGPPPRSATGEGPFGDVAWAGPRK
KCNQ2 block baseline = also measured in KCNQ2 block; calls as there; B-score; measured here: initial fluorescence intensity artifact check;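 brightness before thallium and not channel activity; 0 = typical well and far values either way flag optical interference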
Numbers without * were called inactive; i = inactive. The list is partial. The share of hits here may be higher or lower than overall.

KCNQ2 block,KCNQ2 block baseline,structure
i,-0.29,C=CCSc1nnc(-c2cc(C(C)(C)C)nn2Cc2ccc(F)cc2)n1C
i,2.2,COc1ccc(C)cc1S(=O)(=O)N1c2ccccc2CC1C (stereo not drawn)
i,-0.45,Cc1nc2sc3c(c2c(=O)[nH]1)CCCCC3
i,1.8,CCOC(=O)c1cc(NC(=O)Cc2ccc(S(=O)(=O)N3CCOCC3)s2)cc(C(=O)OCC)c1
i,-2.9,c1ccc(-c2ccc3ccccc3n2)cc1
i,2,COc1ccc(C)cc1S(=O)(=O)Nc1cc2c3c(c1)CC(=O)N3CCC2
i,-1.1,COc1ccc(-c2ccc(C#N)c(SCC(=O)NC3CC3)n2)cc1OC
i,-3,Cc1cccc(/C=N/NC(=O)c2ccccc2OCc2cccc(Br)c2)n1
i,3.2,Cc1ccc(C(=O)N2CCC(C(=O)c3ccc(Cl)cc3)CC2)cc1
i,-1.2,NC(=O)c1ccc(NC(=O)COC(=O)CC(NC(=O)c2ccccc2Cl)c2ccccc2)cc1 (stereo not drawn)
i,-0.17,COC(=O)c1cc(NC(=O)COC(=O)C2CCC2)cc(C(=O)OC)c1
i,2.2,COc1ccc(CCN2C(=O)CC(N3CCOCC3)C2=O)cc1OC (stereo not drawn)
i,-2.4,COc1cc(OC)cc(-c2nc3ccccc3c(=O)n2NC(=O)c2cccnc2Cl)c1
i,-1,COc1cccc(CC(=O)N2CCC(CCC(=O)Nc3cccc(OC)c3)CC2)c1
i,-1.7,C=C(C)C1CC=C(C)/C(=N/NC(=O)CCCNc2cccc(C)c2)C1 (stereo not drawn)
-5.9*,-0.67*,COC(=O)C(Cc1ccc(OC(=O)c2ccccc2C)cc1)N1Cc2ccccc2C1=O (stereo not drawn)
i,2.6,Cc1ccc(Cn2nnc3c(=O)n(CC(=O)c4ccccc4)cnc32)cc1
i,0.76,O=C1[C@H]2[C@@H](c3ccc(F)cc3)N3C(=O)N(c4ccccc4)C(=O)[C@@]3(Cc3ccccc3)[C@H]2C(=O)N1C1CCCCC1
i,-1.6,c1ccc(CSc2nnc(Cc3ccccc3)o2)cc1
i,0.19,CC(C)CC(NC(=O)C(Cc1ccc(OCc2ccccc2)cc1)NC(=O)OC(C)(C)C)C(N)=O (stereo not drawn)
i,0.02,CCOC(=O)C(C(=O)Nc1cccc(C)n1)C1CCCCC1 (stereo not drawn)
i,-1.3,CCOC(=O)CN(Cc1ccc(OC)c(OC)c1)S(=O)(=O)c1ccc(OC)cc1
i,-0.34,Cc1noc(C)c1-c1nc(CS(=O)(=O)c2ccc(Cl)cc2)no1
i,-2,Cc1ccc(C2(C)NC(=O)N(CC(=O)Nc3cccnc3Cl)C2=O)cc1 (stereo not drawn)
i,-2.2,CCOc1ccccc1NC(=O)c1ccc(NC(=O)c2ccco2)cc1

A second format for part of the listing above:
Structure	KCNQ2 block	KCNQ2 block baseline
COc1ccc(C)cc1S(=O)(=O)Nc1cc2c3c(c1)CC(=O)N3CCC2	i	2
COc1cccc(CC(=O)N2CCC(CCC(=O)Nc3cccc(OC)c3)CC2)c1	i	-1
O=C1[C@H]2[C@@H](c3ccc(F)cc3)N3C(=O)N(c4ccccc4)C(=O)[C@@]3(Cc3ccccc3)[C@H]2C(=O)N1C1CCCCC1	i	0.76
Cc1ccc(C(=O)N2CCC(C(=O)c3ccc(Cl)cc3)CC2)cc1	i	3.2
Cc1nc2sc3c(c2c(=O)[nH]1)CCCCC3	i	-0.45
Cc1ccc(C2(C)NC(=O)N(CC(=O)Nc3cccnc3Cl)C2=O)cc1 (stereo not drawn)	i	-2

Following part.
KCNQ2 block,KCNQ2 block baseline,structure
i,0.02,Cc1cc(C)c(C#N)c(Nc2ccc(F)cc2)n1
i,0.02,CCOC(=O)c1cc(-c2ccccc2)sc1NC(=O)C(C)OC(=O)c1cccnc1Cl (stereo not drawn)
-8.4*,1.6*,O=C(Nc1ccc(Cl)c(Cl)c1)N1CC=C(c2ccccc2)CC1
i,-2.6,COc1ccc(NC(=O)c2c(OC)cccc2OC)c(OC)c1
i,1.6,COC(=O)C[C@H]1c2ccc(C(F)(F)F)cc2S(=O)(=O)N1Cc1ccccc1
i,1.1,Cc1cc(C)nc(SCc2cc(=O)c(OC(=O)c3ccco3)co2)n1
i,0.01,COC(=O)[C@]1(Cc2ccccc2)N[C@H](c2ccc(-c3ccc4c(c3)OCO4)cc2)[C@@H]2C(=O)N(C)C(=O)[C@@H]21
i,0.79,COc1ccc2nc(C)c(C(N)=O)cc2c1
i,-0.96,O=C(O)c1cc2c(s1)-c1ccccc1OC2
i,0.92,CCS(=O)(=O)c1nc(S(=O)(=O)c2ccc(C)cc2)c(NCCN2CCOCC2)s1
i,-0.56,COc1ccc(Cl)cc1C(=O)OCC(=O)NC(=O)c1cccn1C
i,-0.72,CN(C)S(=O)(=O)c1ccc(N2CCCC2)c(C(=O)Nc2ccc(F)cc2F)c1
i,1.7,Cc1ccc(NC(=O)c2c(C(F)(F)F)nn(C)c2SCc2cccc(C(F)(F)F)c2)cc1C
i,0.03,C/C(=N\Nc1cccc2cccnc12)c1ccc[nH]1
i,0.15,CCC(=O)N1CCCc2cc(S(=O)(=O)N3CCN(C4CCCCC4)CC3)ccc21
i,0.36,O=C(CC1C(=O)NCCN1CC(c1ccccc1)c1ccccc1)NCC1CCOCC1 (stereo not drawn)
i,-2.1,Cc1c(Cl)cccc1NC(=S)N1CCN(S(=O)(=O)c2cccs2)CC1
i,0.7,CCOC(=O)NC(=O)COC(=O)c1ccc(Sc2ncn[nH]2)c([N+](=O)[O-])c1
i,-1.4,O=c1c(F)cn(C2CCCO2)c(=O)n1Cc1c(F)cccc1Cl (stereo not drawn)
i,0.52,Cc1nc2cc(Cl)c(Cl)cc2nc1C
i,0.67,Cc1cccc(NC(=O)C2CCCN2S(=O)(=O)c2ccc(Cl)cc2)n1 (stereo not drawn)
i,-2,O=C(c1ccc2c(=O)n3c(nc2c1)CCCCC3)N1CCN(c2ccc(F)cc2)CC1
i,-0.71,CCOc1ccccc1/C=N/NC(=O)c1nnn(-c2nonc2N)c1CN1CCCC1
-6.1*,-0.37*,O=C(COn1nnc2ccc(Cl)cc21)NC12CC3CC(CC(C3)C1)C2
i,-0.74,Cc1c(NC(=O)Nc2ccccc2)c(=O)n(-c2ccccc2)n1C
i,-0.5,Cc1nnnn1/C(=C\c1ccccc1)C(=O)OCC(=O)NC(C)(C)C
i,-0.02,COc1ccccc1CCC(=O)N1CCC(n2nccc2NC(=O)CC(C)C)CC1
i,-0.65,CCCn1nnc(NC(=S)NC(=O)/C=C/c2ccc(Cl)cc2)n1
i,-1.1,Cc1ccccc1NC(=O)/C(=C/c1cccs1)NC(=O)c1ccco1
i,-3.9,O=C(NC1CCCc2ccccc21)c1ccccc1Cl (stereo not drawn)
i,0.46,Cc1cc(C)c2nc(N3CCCN(C(=O)c4cnccn4)CC3)c(C#N)cc2c1
i,9.8,CCN(CC)c1ccc2cc(C(=O)Nc3ccccn3)c(=O)oc2c1
i,-0.91,Cc1ccc(CC(=O)Nc2cc(C)ccn2)cc1
i,0.67,COc1ccccc1CNC(=O)Cc1cc(=O)[nH]c(=O)[nH]1
i,-1.5,COc1ccc(S(=O)(=O)N2c3ccccc3OCC2C(C)(C)C)cc1 (stereo not drawn)
i,0.15,NS(=O)(=O)c1ccc(CCNC(=O)c2ccc(Cl)s2)cc1
i,-0.55,O=C(/C=C/c1ccc(-c2ccccc2[N+](=O)[O-])o1)c1ccccc1
i,-2.4,O=C(O)CCSc1nnc(SCC(=O)NCC(F)(F)F)s1
i,0.22,Cc1cc(S(=O)(=O)Nc2cccnc2)c(Cl)cc1Cl
i,2.5,Cn1nc(C(=O)Nc2ccc(S(=O)(=O)Nc3ncccn3)cc2)ccc1=O
i,0.87,O=C(NC1CCCC1)C(c1ccncc1)N(Cc1ccccc1F)C(=O)c1csnn1 (stereo not drawn)
i,-2.5,Cc1oc(C(C)(C)C)cc1C(=O)NCC(=O)NCC(=O)O
i,-0.46,O=C(c1nnc(-c2ccc(Cl)cc2)o1)C1CCCC1
i,0.47,CCOC(=O)c1ccc(NC(=O)CSC2=NN3CCCC(=O)N=C3S2)cc1
i,1.1,Cc1onc(-c2ccccc2Cl)c1C(=O)N1CCCc2ccccc21
i,-0.77,CC(=O)Nc1ccc(S(=O)(=O)N2CCN(C(=O)c3ncoc3-c3cccc(F)c3)CC2)cc1
i,-0.99,O=C(COc1cccc2ccccc12)N1CCN(c2ccccn2)CC1
i,-0.56,CCOc1ccc(C(=O)NC(C)(C)CC)cc1
i,0.64,COc1ccc(NS(=O)(=O)c2ccc(C)c(C(=O)N3CCCCCCC3)c2)cc1
i,0.68,COc1ccc(C(CNC(=O)Nc2cccc(C)c2)N2CCN(C)CC2)cc1 (stereo not drawn)

The listing continues.
KCNQ2 block,KCNQ2 block baseline,structure
i,0.95,O=C(CSc1nc2ccccc2s1)NC(=O)NCc1ccco1
-5.5*,-0.16*,CSc1ccc(CN(C)C(=O)C(Cc2ccccc2)NC(=O)c2ccccc2)cc1 (stereo not drawn)
i,0.79,N#Cc1c(Cl)cccc1N1CCCC1
i,-0.03,CCc1nnc(NC(=O)CCC(=O)NCc2ccc(OC)cc2)s1
i,-0.88,C/C(=N\N1CCN(Cc2ccccc2)CC1)c1ccco1
i,0.01,Cc1cccc(-n2ccnc2SCC(=O)Nc2nccs2)c1
i,-1,O=C(Nc1cccc2ccccc12)C1CCN(C(=O)NCc2ccccc2)CC1
i,3.3,CC(C)(C)NCCCCOc1ccc(F)cc1
i,0.08,O=C(Nc1nc(-c2cccnc2)cs1)c1ccc([N+](=O)[O-])cc1
i,-0.92,COc1ccccc1C1C2C(=O)N(c3ccccc3)C(=O)C2ON1c1ccccc1 (stereo not drawn)
i,-0.65,CCCc1ccc(-c2cc(C(=O)N3CCN(c4ccccn4)CC3)c3ccccc3n2)cc1
i,0.18,Cc1ccc(S(=O)(=O)N2CCOCC2)cc1NC(=O)COc1ccc2c(C)cc(=O)oc2c1
i,1.4,CC1CCCC(C)N1S(=O)(=O)c1ccc(S(=O)(=O)NCc2ccccc2)cc1 (stereo not drawn)
i,-0.58,O=Cc1cn(CC(=O)Nc2ccc(F)cc2)c2ccccc12
i,-0.05,COc1cccc(C(=O)NCCSCc2c(F)cccc2Cl)c1
i,-0.7,COn1c(SCc2ccc(Cl)cc2)nc2ccccc2c1=O
i,-0.67,Cc1ccccc1C(=O)N(Cc1cccs1)C1CCS(=O)(=O)C1 (stereo not drawn)
i,0.34,O=C(Nc1ccccc1F)c1ccc(CSc2ccccc2)o1
i,0.78,O=C(/C=C/c1ccccc1[N+](=O)[O-])NCc1ccccc1Cl
i,-0.72,COc1cccc(-c2nnc(SCc3ccc(C#N)cc3)n2Cc2ccco2)c1
i,0.47,C[C@H]1CC[C@@]2(O[C@@H](CCO)C[C@@H](O)[C@@H]2O)O1
i,-0.51,CCN1CCN(C(=O)c2sc3ncnc(N4CCc5ccccc5C4)c3c2C)CC1
i,4.7,O=c1[nH]c2cc3c(cc2cc1CN(Cc1nnnn1CC1CCCO1)C1CCCCC1)OCO3 (stereo not drawn)
i,2.1,Cc1nn(C)c(=O)n1-c1ccc(Oc2ccccc2)cc1
i,-0.04,O=C(COC(=O)c1cccc(NS(=O)(=O)/C=C/c2ccccc2)c1)Nc1ccccc1OC(F)F
i,-2.3,COc1ccc([C@H]2Oc3cc(O)cc(O)c3C(=O)C2[C@@H]2C(=O)c3c(O)cc(O)cc3O[C@@H]2c2ccc(OC)cc2)cc1 (stereo partly drawn)
i,-2.2,Cc1ccc(S(=O)(=O)n2c3ccc(Cl)cc3c3nc(C)sc32)cc1
i,-0.31,CC1(C)CC2(CC(C)(C)NC(=O)N2)NC(=O)N1
-6*,0.18*,CCOC(=O)c1ccccc1NC(=O)C1CCN(c2ncnc3sc(C)c(C)c23)CC1
i,-0.64,COc1ccc(/C=N/n2cc(-c3ccc(OC)cc3)nc2N)cc1
i,0.49,Cc1cccc(COCC(Cc2ccccc2)N2CCN(C(=O)c3ccc(C(F)(F)F)cc3)CCC2=O)c1 (stereo not drawn)
i,0.8,COc1ccccc1CNC(=O)C(C)n1nc(C)c2c(C)n(-c3ccccc3)nc2c1=O (stereo not drawn)
i,-1,O=C(COC(=O)/C=C/c1ccccc1)Nc1cccc(Oc2ccccc2)c1
i,2.4,Cn1c(=O)c2c(-c3ccccc3)n3c4ccccc4ncc3c2n(C)c1=O
i,1.4,COC(=O)c1ccsc1NC(=O)CCc1ccccc1
i,-0.3,CC1(C)Cc2c(c(N3CCOCC3)nc3sc4c(NCc5ccco5)nnnc4c23)CS1
i,0.67,COc1ccc(-c2nnn(CC(=O)N(CCN3CCOCC3)C(C(=O)NC3CCCC3)c3ccco3)n2)cc1 (stereo not drawn)
i,-0.1,O=C(Nc1ccccc1)Nc1ccccc1NS(=O)(=O)c1cccs1
i,0.3,CCCc1cc(C(=O)Nc2ccn(Cc3ccc(C)cc3)n2)no1
i,0.37,COc1ccc(S(=O)(=O)N2CCCN(CC(=O)Nc3ccc(NC(C)=O)cc3)CC2)cc1
i,0.25,Cc1cccc(OCCN2C(=O)C(=O)c3cccc(C)c32)c1
i,3,COC(=O)c1cc(S(=O)(=O)N2CCN(c3ccc(F)cc3)CC2)cn1C

Shown as comma-separated lines: 6 of the compounds above.
Compound,KCNQ2 block,KCNQ2 block baseline
Cc1cccc(OCCN2C(=O)C(=O)c3cccc(C)c32)c1,i,0.25
Cn1c(=O)c2c(-c3ccccc3)n3c4ccccc4ncc3c2n(C)c1=O,i,2.4
COC(=O)c1cc(S(=O)(=O)N2CCN(c3ccc(F)cc3)CC2)cn1C,i,3
O=C(Nc1ccccc1)Nc1ccccc1NS(=O)(=O)c1cccs1,i,-0.1
Cc1ccc(S(=O)(=O)n2c3ccc(Cl)cc3c3nc(C)sc32)cc1,i,-2.2
CC1(C)CC2(CC(C)(C)NC(=O)N2)NC(=O)N1,i,-0.31
